# High-throughput results from PubChem.
# GLA inh pH 4.5 – qHTS Assay for Inhibitors of Human alpha-Galactosidase at pH 4.5 | activity change, negative = inhibition, % at 105 µM | purified enzyme, 4-MU-alpha-Gal fluorescence, pH 4.5 | 230,000 tested, under 10 active; inconclusive = small, poorly fitted or top-dose-only inhibition, or a rising curve; inactive = flat fitted curve, though single readings scatter; no compound was filed as active;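 note: 0% = full activity with enzyme and -100% = basal without enzyme; dose as in the result columns while the protocol names 77 µM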
# Target sequence (P06280 whole entry, looked up): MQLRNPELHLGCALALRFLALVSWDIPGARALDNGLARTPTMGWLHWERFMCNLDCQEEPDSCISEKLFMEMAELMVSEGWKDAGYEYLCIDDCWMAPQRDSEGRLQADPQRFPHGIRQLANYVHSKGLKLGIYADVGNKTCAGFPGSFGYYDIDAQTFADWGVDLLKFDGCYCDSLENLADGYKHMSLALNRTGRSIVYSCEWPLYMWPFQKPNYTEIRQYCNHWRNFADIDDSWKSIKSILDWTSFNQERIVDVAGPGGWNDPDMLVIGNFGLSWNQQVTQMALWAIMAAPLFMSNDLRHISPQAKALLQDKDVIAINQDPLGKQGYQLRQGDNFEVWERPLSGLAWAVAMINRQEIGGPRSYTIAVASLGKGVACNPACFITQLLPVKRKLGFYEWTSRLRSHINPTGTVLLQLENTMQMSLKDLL
# miR-21 reporter – qHTS Assay for Modulators of miRNAs and/orActivators of miR-21; HeLa miR-21 FLuc reporter, luciferase, 48 h; Potency, µM (doses to about 38.3 µM), for inactives: at the top dose reporter change, positive = more light; 340,000 tested, under 10 active; active = well fitted rising curve with a large enough effect; inconclusive = small, poorly fitted or top-dose-only effect; inactive = no such curve, though single readings can be large or run the other way;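 note: % of control where 0% means no effect; miR-21 action dims this reporter so a rising signal means less miR-21 action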
#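 Using DMEM plus 10% FBS, HeLa miR-21-FLuc cells are incubated with test compounds (final up to about 40uM) for 48 hours; firefly luciferase signal is then imaged following reagent-mediated lysis.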
# Rango-impB inh – qHTS Assay for Inhibitors of Rango (Ran-regulated importin-beta cargo) - Importin beta complex formation | Importin subunit beta-1 (Homo sapiens), Q14974 | Rango CFP/YFP FRET sensor + importin beta, 45 min | Potency, µM (series often up to 92.2 µM), for the others: at the highest dose inhibition of complex formation | 340,000 tested, 0.031% active; active = rising FRET ratio curve, often small or poorly fitted; inconclusive = mostly compound fluorescence or quenching in the first reads; inactive = flat curves in all reads;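 note: potency is the fitted concentration of half-maximal effect; 0% = DMSO wells and 100% = buffer wells lacking importin beta; nearly all actives have a fitted effect of over 15% in size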
#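 FRET biosensor Rango (snurportin 1 IBB between N-terminal EYFP and C-terminal Cerulean), 50 nM in PBS/1 mM DTT/0.02% Tween-20/0.1% BSA, preincubated 5 min RT with compound; 0.125 microM importin beta added, 45 min RT, CFP/YFP FRET ratio read.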
# Rango release inh – qHTS Assay for Inhibitors of RanGTP induced Rango (Ran-regulated importin-beta cargo) - Importin beta complex dissociation; Snurportin-1 (Homo sapiens) + GTP-binding nuclear protein Ran (Homo sapiens) + Importin …; Biochemical FRET Rango-importin beta, RanGTP-induced dissociation; Potency, µM (doses to about 46.1 µM), without a hit: at the highest dose activity change, negative = inhibition; 340,000 tested, 0.071% active; AID 540253, 2011; active means falling FRET ratio curve, often poorly fitted, with flat reads before Ran was added; inconclusive means other falling curves, or compound fluorescence or quenching; inactive means flat or rising ratio curve;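 note: potency is the fitted concentration of half-maximal effect; % of control where 0% means no effect; nearly all actives have a fitted effect of over 45% in size; -100% = wells without RanGTP and RCC1; the record marks most hits as doubtful in a second field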
#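 FRET read at 45 min, room temperature: inhibitors block the CFP/YFP signal rise when RanGTP (0.6 uM Ran, 2 mM GTP, 0.2 uM RCC1) frees Rango (0.1 uM) from importin beta (0.25 uM). Pre-read after 5 min compound exposure flags interference.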
# Numbers without * were called inactive; u = inconclusive; x = no result given; & = joins results of further samples. This is a subset (hit frequency here may not be typical).
SMILES,GLA inh pH 4.5,miR-21 reporter,Rango-impB inh,Rango release inh
O=c1c2ccccc2nc(/C=C/c2ccco2)n1-c1ccccc1O,-2,9%,-0.6%,-18%
CSCCC(NC(=O)CCC(=O)OC1CC[C@H]2[C@@H]3CC[C@H]4CC(=O)CC[C@]4(C)[C@H]3CC[C@]12C)C(=O)O (some centres not stated),x,-19%,2.2%,4%
O=c1c2ccccc2nc(Cc2cccc([N+](=O)[O-])c2)n1-c1ccc(O)cc1,4,-28%,7.7%,2%
CCOC(=O)C(O)(c1cn(C)c2ccccc12)C(F)(F)F (configuration not stated),-3,-5%,2.0%,1%
Cc1ccc(S(=O)(=O)N2CCCCC2)cc1NC(=O)CN1CC=C(c2ccccc2)CC1,-8,19%,u,0%
FC(F)(F)c1ccccc1N1CC1c1ccncc1 (configuration not stated),x,-5%,-5.5%,0%
CSCCC(N=Cc1c(O)n(-c2ccc(F)cc2)c(=O)[nH]c1=O)C(=O)OC(C)(C)C (configuration not stated),1,-1%,0.2%,3%
CCOC(=O)[C@]12Cc3cc(OC)ccc3[C@H]1N(Cc1ccccc1)C(=O)c1ccccc12,x,x,1.4%,-18%
O=C(NN1C(=O)C2C3C=CC(C4CC34)C2C1=O)c1cccc(Cl)c1 (configuration not stated),4,-34%,-1.1%,-5%
CC(C)CCn1c(N)c(C(=O)OCC2CCCO2)c2nc3ccccc3nc21 (configuration not stated),u,22%,u,u
CCN(CC)C(=O)c1ccc(NC(=O)c2sccc2-c2ccccc2)cc1,x,10%,0.9%,1%
CNCCc1c(C)n[nH]c1C,-5,-3%,2.7%,9%
CN1CCN(S(=O)(=O)c2cnc(Cl)c(Br)c2)CC1,2,-8%,0.8%,0%
O=[N+]([O-])c1ccc(N2CCNCC2)c(Cl)c1,8,0%,-1.4%,2%
O=c1[nH]c(=O)n(Cc2ccccc2)c(O)c1C=NCCN1CCOCC1,-10,-7%,-2.2%,5%
COc1ccc(N2C(=O)NC(=O)/C(=C\c3cn(C)c4ccccc34)C2=O)cc1,x,-3%,-0.3%,9%
CCc1ccc(CNCCc2c[nH]c3ccccc23)cc1,x,-3%,-3.9%,0%
C=CCn1c(=O)c(C=Nc2cccc([N+](=O)[O-])c2)c(O)n(CCCC)c1=O,-10,0%,-2.6%,35%
CCOc1cc(C=C2C(=O)NC(=S)NC2=O)ccc1O,x,x,0.5%,-15%
COc1ccc(C(C)=O)cc1Cc1c(O)[nH]c(=S)[nH]c1=O,x,-3%,-1.5%,-7%
C[C@]12CCC3C(CC[C@H]4C[C@H](O)CC[C@]34C)C1C[C@H](O)[C@H]2O (some centres not stated),x,x,2.5%,-7%
CC(C)(C)[C@]1(O)C[C@@H]2OC(=O)C[C@@]23C(=O)O[C@@H]2OC(=O)[C@H](O)[C@]213,3&-3,1%,0.5%,-22%
COc1cc2c3cc1Oc1c(OC)c(OC)cc4c1[C@H](Cc1ccc(cc1)Oc1cc(ccc1O)C[C@H]3N(C)CC2)N(C)CC4,x,x,3.0%,14%
CC(CN(C)C1CCN(C)CC1)c1ccccc1 (configuration not stated),x,0%,0.8%,-5%
CCOP(=O)(OCC)C(C)(C)NC(=O)C(Cl)(Cl)Cl,-2,2%,-0.7%,-5%

# As entered above:
# In Rango-impB inh, CCOc1cc(C=C2C(=O)NC(=S)NC2=O)ccc1O is listed with 0.5%
# In miR-21 reporter, CC(C)CCn1c(N)c(C(=O)OCC2CCCO2)c2nc3ccccc3nc21 (configuration not stated) is listed with 22%
# In Rango release inh, CCOC(=O)[C@]12Cc3cc(OC)ccc3[C@H]1N(Cc1ccccc1)C(=O)c1ccccc12 is listed with -18%
# In Rango-impB inh, O=c1c2ccccc2nc(Cc2cccc([N+](=O)[O-])c2)n1-c1ccc(O)cc1 is listed with 7.7%

# (further entries)
SMILES,GLA inh pH 4.5,miR-21 reporter,Rango-impB inh,Rango release inh
Cc1c(N=Cc2c(O)n(CCc3ccc(F)cc3)c(=O)[nH]c2=O)c(=O)n(-c2ccccc2)n1C,8,-7%,-4.8%,10%
COc1ccc(Cn2c(O)c(/C=N/NC(=O)c3ccccc3)c(=O)[nH]c2=O)cc1,14,-22%,-0.9%,-2%
CN1C(=O)C(Cc2cccc3ccccc23)C(=O)N(C)C1=O,3,0%,u,0%
O=C(O)c1cccc(N=Nc2c(O)[nH]c(=O)[nH]c2=O)c1,-16,-1%,-3.1%,-14%
COc1ccc(-n2nc(C(=O)NCC(=O)N3CCC4(CC3)OCCO4)c3ccccc3c2=O)cc1OC,x,-6%,0.0%,17%
CN1CCN(c2ccc(C=O)cc2)CC1,-3,-6%,2.3%,22%
O=P(Oc1ccccc1)(Oc1ccccc1)c1ccccc1,-5,-1%,0.9%,1%
COc1ccc(C=C2C(=O)N(C)C(=O)N(C)C2=O)cc1COc1ccc(NC(C)=O)cc1,3,12%,-0.1%,0%
N[C@@H](Cn1oc(=O)[nH]c1=O)C(=O)O,-1&-3,x,-1.4%,25%
CCOC(=O)C1(CCOc2ccccc2)CCN(C2Cc3ccccc3C2)CC1,-6,-3%,-4.4%,2%
CCCSc1nc(O)c(CC)c(=O)n1C(C)CC (configuration not stated),-2,-5%,2.5%,1%
CN1CCN(c2ncnc3ccc(Br)cc23)CC1,-8,23%,u,-16%
CC(C)=CCOc1c2occc2cc2ccc(=O)oc12,1&6,-11%,-2.7%,-16%
CN1C(=O)C(Cc2ccccc2)C(=O)N(C)C1=O,x,x,-2.4%,-23%
CCOC(=O)c1nc2ccccc2c(=O)n1-c1ccc(C)cc1C,-7,2%,0.4%,2%
N#Cc1ncc(N=Cc2ccc(N(CCCl)CCCl)cc2)s1,x,x,0.4%,-3%
CCOc1ccc(-n2c(O)c(N=Nc3c(C)n(C)n(-c4ccccc4)c3=O)c(=O)[nH]c2=O)cc1,-25,-8%,0.0%,4%
CCCCCn1c(=O)c(C(=O)Nc2c(C)n(C)n(-c3ccccc3)c2=O)c(O)c2ccccc21,-19,-6%,-4.6%,12%
OCC[N+]12CCC(CC1)C(C(O)(c1ccccc1)c1ccccc1)C2 (configuration not stated),-4,-2%,2.9%,-15%
O=C(O)c1ccc(-[n+]2c(-c3ccccc3)cc(-c3ccccc3)cc2-c2ccccc2)cc1,x,x,-0.6%,13%
CN1CCC(N(C)c2ccc(C(N)=O)cc2[N+](=O)[O-])CC1,x,0%,2.7%,-2%
CN(C)c1ccc(/C=C2\C(=O)NC(=O)N(CCc3ccc(F)cc3)C2=O)cc1,-3,11%,u,1%
CCOc1ccc2[nH]c(=O)c(CN(CCO)C3(c4nnnn4C4CCCCC4)CCCCC3)cc2c1,-5,-6%,-5.0%,2%
O=C(Nc1ccc2ccccc2c1)N1C[C@H]2C[C@@H](C1)c1cccc(=O)n1C2,2,2%,-5.7%,-7%
CCOC(=O)C1(c2ccccc2)CCN(CCC(=O)Nc2ccc(C(=O)OC)cc2)CC1,x,x,-5.2%,-10%

# The list continues.
SMILES,GLA inh pH 4.5,miR-21 reporter,Rango-impB inh,Rango release inh
CC(=O)N1CN2CN(C(C)=O)CC(C(=O)c3ccc([N+](=O)[O-])cc3)(C2)C1,-10,-1%,0.4%,-14%
COc1ccc(CCn2c(O)c(C=Nc3ccccc3F)c(=O)[nH]c2=O)cc1OC,7,2%,0.1%,-3%
N#CC1(c2ccccc2)CCN(C2CC(=O)N(c3ccc4c(c3)OCO4)C2=O)CC1 (configuration not stated),6,4%,-3.4%,-11%
N=C1c2ccccc2CN1NC(=O)c1ccc(Br)o1,x,-11%,u,-3%
O=C1/C(=C\c2ccc(Cl)cc2Cl)N2CCC1CC2,-1,-1%,-0.2%,-18%
Cc1ccc(C(=O)Nc2ccc(Cl)cc2C(=O)c2ccccc2)cc1,x,x,-1.2%,-2%
COc1ccc(Cl)cc1NC1=NCC(C)S1 (configuration not stated),2,-8%,2.5%,31%
CNP(=S)(NC)OCCOc1ccc(OC)cc1,-5,-6%,-1.6%,-9%
O=P1(Nc2cccnc2)COc2ccccc2OC1,4,0%,-3.7%,1%
O=C(NCc1cccnc1)C(Cl)(Cl)Cl,1,-5%,-3.6%,3%
O=c1c2ccccc2c(C=Nc2ccc(O)cc2)c(O)n1Cc1ccccc1,-10,-4%,u,u
COc1ccc(CN2CCCC(C(=O)c3ccc(Cl)cc3)C2)c(OC)c1 (configuration not stated),x,9%,0.4%,-5%
Cc1ccc(C(=O)N2CC2C)cc1 (configuration not stated),x,x,3.1%,6%
O=c1c2ccccc2nc(N2CCCC2)n1-c1ccccc1,-13,-2%,2.0%,13%
O=c1c2ccccc2nc(-c2ccoc2)n1-c1ccccc1,5,1%,-4.0%,-15%
COc1cc(C(=O)OC2C[C@H]3CC[C@@H](C2)N3)ccc1O (some centres not stated),x,3%,0.8%,-8%
COc1ccc(CC2C(=O)N(C)C(=O)N(C)C2=O)c(OC)c1,3,-5%,0.6%,4%
CC(C)OC(=O)c1c(N)n(CC2CCCO2)c2nc3ccccc3nc12 (configuration not stated),u,6%,u,u
O=C(c1cc2ccccc2oc1=O)N1CCC2(CC1)OCCO2,-3,-1%,-3.1%,14%
CCC(C#N)(CC)P(=S)(c1ccccc1)c1ccccc1,-4,1%,3.8%,20%
CC(C)OCCCNC(=O)c1c(N)n(Cc2cccs2)c2nc3ccccc3nc12,14,22%,u,u
COC(=O)C(O)(c1ccc(N(C)C(=O)COc2ccccc2)cc1)C(F)(F)F (configuration not stated),1,-15%,u,13%
CCOC(=O)c1cncn1[C@H](C)c1ccccc1,2&-2,2%,x,x
C=CCn1c(O)c(C=NCCN2CCNCC2)c(=O)[nH]c1=O,4,1%,-0.4%,-8%
CNC(=O)c1cccn(Cc2ccc(C(F)(F)F)cc2)c1=O,0,-14%,-1.8%,-15%

# Other records follow.
SMILES,GLA inh pH 4.5,miR-21 reporter,Rango-impB inh,Rango release inh
CCOc1ccc(NC(=O)c2c(O)[nH]c(=O)[nH]c2=O)cc1,x,x,2.7%,15%
O=C(c1cc(-c2ccccc2)nc2ccccc12)N1CCC2(CC1)OCCO2,8,-8%,-6.3%,-7%
CCOP(=O)(CN(CC)CCNP(=O)(OCC)OCC)OCC,4,-5%,-0.3%,1%
NC(=O)c1cc(N2CC2)c([N+](=O)[O-])cc1[N+](=O)[O-],-2,x,-1.3%,1%
Cc1ccc(N=Nc2c(O)[nH]c(=O)[nH]c2=O)cc1S(=O)(=O)Nc1ccc(Br)cc1,x,x,u,u
O=P(Oc1ccccc1)(Oc1ccccc1)C(O)c1ccc(Cl)cc1 (configuration not stated),x,x,-5.6%,-7%
CCCCOC(=O)COc1cc(C)cc2oc(=O)c3c(c12)CCC3,-2,8%,-3.6%,0%
O=C(O)C1C2CCC(O2)C1C(=O)NC1CCCCC1 (configuration not stated),-1,0%,1.0%,14%
Cc1c2cnn(CC(=O)N3CCC4(CC3)OCCO4)c(=O)c2c(C)n1Cc1ccccc1F,4,-8%,-5.5%,8%
CC(=O)OC(C)(C)/C=C/C(=O)C(C)(O)C1C(O)CC2(C)C3CC=C4C(CC(O)C(=O)C4(C)C)C3(C)C(=O)CC12C (configuration not stated),x,x,-0.3%,-6%

# Whole records from above:
# NC(=O)c1cc(N2CC2)c([N+](=O)[O-])cc1[N+](=O)[O-] across the screens: GLA inh pH 4.5: -2; miR-21 reporter: x; Rango-impB inh: -1.3%; Rango release inh: 1%
# Cc1c2cnn(CC(=O)N3CCC4(CC3)OCCO4)c(=O)c2c(C)n1Cc1ccccc1F across the screens: GLA inh pH 4.5: 4; miR-21 reporter: -8%; Rango-impB inh: -5.5%; Rango release inh: 8%

# Of the compounds above, 3 contain a cyano group.
SMILES,GLA inh pH 4.5,miR-21 reporter,Rango-impB inh,Rango release inh
N#Cc1ncc(N=Cc2ccc(N(CCCl)CCCl)cc2)s1,x,x,0.4%,-3%
N#CC1(c2ccccc2)CCN(C2CC(=O)N(c3ccc4c(c3)OCO4)C2=O)CC1 (configuration not stated),6,4%,-3.4%,-11%
CCC(C#N)(CC)P(=S)(c1ccccc1)c1ccccc1,-4,1%,3.8%,20%
